# Bioassay records (PubChem BioAssay)
# AmpC inh no det: blocks E. coli AmpC beta-lactamase in absence of detergent; actives 1.8% (n = 71,000); AID 585; P00811; AmpC nitrocefin hydrolysis, absorbance 480 nm, no detergent; potencies from a single point are estimates; Potency, µM (top dose mostly 28.7 µM), without a hit: top-dose activity change, negative = inhibition; active = falling curve, for most hits resting on a single point; inconclusive = weak or doubtful change; inactive = flat or rising curve; note: % of control where 0% means no effect; about half of the hits show no inhibition at the top dose; a quarter of the inactives give rising signals
# Target sequence (P00811 whole entry, looked up): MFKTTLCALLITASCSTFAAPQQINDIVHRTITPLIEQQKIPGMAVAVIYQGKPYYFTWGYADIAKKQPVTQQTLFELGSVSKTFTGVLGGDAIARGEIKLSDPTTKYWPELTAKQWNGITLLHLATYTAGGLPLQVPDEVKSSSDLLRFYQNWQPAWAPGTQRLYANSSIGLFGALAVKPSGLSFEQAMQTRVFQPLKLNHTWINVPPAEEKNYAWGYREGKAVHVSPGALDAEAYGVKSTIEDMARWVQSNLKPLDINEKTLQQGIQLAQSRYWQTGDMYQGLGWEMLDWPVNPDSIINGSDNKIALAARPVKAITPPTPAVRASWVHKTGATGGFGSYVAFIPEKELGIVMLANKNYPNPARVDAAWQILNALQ
#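 AmpC in 20 mM phosphate buffer pH 7.0 was preincubated 15 min at room temperature with compounds. Nitrocefin (800 uM stock) was then added and hydrolysis followed at 480 nm every 20 s for 4 min.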
# * hit, by the source's call; ? = inconclusive; [ ] = remark or other dose. Potency is the fitted concentration of half-maximal effect. The list is partial. The share of hits here may be higher or lower than overall.
# Start of the data: the first 5 records, ahead of the listing:
smiles | AmpC inh no det
COc1ccc(CC(=O)Nc2nc(C)cs2)cc1OC | -15%
Cc1ccc(NC(=O)CN2CCCCCC2)c(Br)c1 | 4%
Cn1c(C(=O)Nc2ccc3c(c2)OCCO3)cc2c(=O)n(C)c3ccccc3c21 | 70%
CSCCC(NC(=O)c1ccco1)C(=O)O (centres undefined) | -3%
COc1ccc(N=C2SC(CC(=O)Nc3ccccc3)C(=O)N2CC2CCCO2)cc1 (centres undefined) | 68%

# The whole of this part, repeating the preview:
smiles | AmpC inh no det
COc1ccc(CC(=O)Nc2nc(C)cs2)cc1OC | -15%
Cc1ccc(NC(=O)CN2CCCCCC2)c(Br)c1 | 4%
Cn1c(C(=O)Nc2ccc3c(c2)OCCO3)cc2c(=O)n(C)c3ccccc3c21 | 70%
CSCCC(NC(=O)c1ccco1)C(=O)O (centres undefined) | -3%
COc1ccc(N=C2SC(CC(=O)Nc3ccccc3)C(=O)N2CC2CCCO2)cc1 (centres undefined) | 68%
Cc1nc(NCc2ccccc2)c2nc(-c3ccccc3)n(C3CCN(Cc4ccccc4)C3)c2n1 (centres undefined) | 70%
O=C(O)C1CCCCC1C(=O)NCCc1ccncc1 (centres undefined) | -2%
Cc1c(NC(=O)NC(C)N2C(=O)C3C4C=CC(C4)C3C2=O)c(=O)n(-c2ccccc2)n1C (centres undefined) | -7%
N[C@H](C(=O)O)c1nn[nH]n1 | -8%
CCOC(=O)c1c(-c2ccc(C)o2)csc1NC(=O)CSc1nncs1 | 24%
CCCCn1c(O)c(C(CC)=Nc2ccc3c(c2)CCC3)c(=O)[nH]c1=O | -13%
Cc1cc(C(=O)NC2=NCCS2)cs1 | -12%
CCC(=O)Nc1cccc(-n2nnnc2SCC(=O)NCc2ccco2)c1 | -6%
O=C(Nc1nnc(COc2ccc(Cl)cc2)s1)c1cccs1 | -12%
CC12CNCC(C)(CNC1)C2O (centres undefined) | 1%
O=c1c2ccccc2nc(-c2ccco2)n1-c1ccc(Br)cn1 | 6%
CCn1c(SCC(=O)Nc2ccc3c(c2)OCO3)nnc1-c1ccccc1O | 0%
CCCCOc1ccc(NC(=O)Cn2c(=O)ccc3c(C)cc(C)nc32)cc1 | 65%
CCCCCCN(C(=O)CCCCCN1C(=O)NC(c2ccc3ccccc3c2)C(C(=O)OCc2ccccc2)=C1C)C(C(=O)NCCCC)c1ccc(OCC(=O)OC)c(C(=O)OC)c1 (centres undefined) | 32%
O=C(OCc1nc2ccccc2s1)C1CCN(C2=NS(=O)(=O)c3ccccc32)CC1 | 51%
O=C(O)c1cc(Cl)c2ccccc2c1O | -8%
O=S(=O)(NC1CC1)c1ccc(S(=O)(=O)N2CCCC(c3nc(-c4cccnc4)no3)C2)cc1 (centres undefined) | 81%
O=C(c1ccccc1F)N1CCN(S(=O)(=O)c2ccc3c(c2)OCCO3)CC1 | 46%
CCCn1c(N)c(C(=O)CSc2nc3ccccc3n2CCC#N)c(=O)n(C)c1=O | -10%
CN1CCN(C(=O)c2ccc(N(Cc3ccc(Cl)cc3)S(C)(=O)=O)cc2)CC1 | 82%
CC(C)NS(=O)(=O)c1ccc(CCC(=O)O)cc1 | -2%
COc1ccc(CNc2ccc(S(N)(=O)=O)cc2)c(OC)c1OC | -7%
CCOC(=O)C1CCN(c2c(NCCN3CCCCC3C)c(=O)c2=O)CC1 (centres undefined) | -3%
O=c1c2c3c(sc2nc2n1CCC2)CCC3 | -7%
CC(=O)Nc1ccc(S(=O)(=O)n2nc(-c3ccc(C)cc3)nc2N)cc1 | 10%

# Given field by field: part of the list above.
CCCCCCN(C(=O)CCCCCN1C(=O)NC(c2ccc3ccccc3c2)C(C(=O)OCc2ccccc2)=C1C)C(C(=O)NCCCC)c1ccc(OCC(=O)OC)c(C(=O)OC)c1 (centres undefined)
- AmpC inh no det: 32%
O=S(=O)(NC1CC1)c1ccc(S(=O)(=O)N2CCCC(c3nc(-c4cccnc4)no3)C2)cc1 (centres undefined)
- AmpC inh no det: 81%

# Next section.
smiles | AmpC inh no det
Cc1cc(=O)[nH]c(SCCOc2ccc(OC(C)C)cc2)n1 | 2%
CCN1C[C@@]2(COC(=O)c3ccccc3N3C(=O)C[C@H](C)C3=O)CC[C@H](OC)[C@@]34[C@@H]5CC6[C@@H](OC)C[C@@](O)([C@H]5[C@H]6OC)C(O)([C@@H]13)[C@@H](OC)[C@H]24 | 48%
N#CC1(c2nc3ccccc3[nH]2)CC1c1ccc2c(c1)OCO2 (centres undefined) | ?
COc1ccc(C2(CNC(=O)CCC(=O)O)CCCC2)cc1 | -3%
COc1ccc(C(=O)N(CC(=O)NC(C)(C)C)c2ccc3c(c2)OCCO3)cc1OC | 24%
CCN(CC(=O)Nc1ccc2c(c1)OCCO2)C(=O)C1CCCCC1 | -6%
O=C(c1cnn2c1NC(c1ccco1)CC2C(F)(F)F)N1CCN(c2cccc(Cl)c2)CC1 (centres undefined) | 52%
Cc1ccc2nc(NC3=NCN(CCc4ccccc4)CN3)nc(C)c2c1 | 3%
CCOC(=O)N1CCC(Nc2cccc(SC)c2)CC1 | 49%
Cc1ccccc1-c1nc(CS(=O)(=O)CC(=O)N2CCc3ccccc32)c(C)o1 | 0%
COc1ccccc1NC(=O)CN1CCN(c2ccccc2F)CC1 | 30%
O=C(CCN1C(=O)C2C3C=CC(C3)C2C1=O)N1CC(=O)N(CCc2ccccc2)C(=O)C1 (centres undefined) | 56%
CNC(=O)CSc1nnc(-c2ccncc2)n1Cc1ccccc1 | -2%
Oc1c(/C=N/c2ncn[nH]2)ccc2ccccc12 | -8%
Cc1nc2scc(-c3cccs3)c2c(=O)n1-n1cccc1 | -14%
CN=C(Nc1cc(C)nn1CCC#N)c1ccccc1F | 0%
c1coc(-c2nnc(NC3=NCCC3)o2)c1 | -20%
Cc1nc2sccn2c(=O)c1CCN1CCC(=C(c2ccc(F)cc2)c2ccc(F)cc2)CC1 | 129%
O=C(Cn1ncn2c(cc3ccccc32)c1=O)NCc1ccco1 | 10%
COc1cc2c(cc1OC)[C@]13CCN4CC5=CCO[C@@H]6CC(=O)N2[C@@H]1[C@H]6[C@@H]5C[C@H]43 | -7%
Cc1cccc2cc(CN(Cc3ccco3)C(c3nnnn3CCc3ccccc3)C(C)C)c(=O)[nH]c12 (centres undefined) | 8%
COC(=O)c1nnn(-c2nonc2N)c1CSc1nc2ccccc2s1 | 1%
CC1CCCN(Cc2nc3c(c(=O)n(C)c(=O)n3C)n2CC(N)=O)C1 (centres undefined) | -1%
CC(=O)c1ccc(N2CCN(C(=O)COc3ccc(F)cc3)CC2)c(F)c1 | 58%
CCCCN(C)c1nc(-c2ccco2)c2c(c1C#N)CC(C)(C)OC2 | 58%
Cn1c(=O)c2[nH]c(-c3ccc(S(=O)(=O)O)cc3)nc2n(C)c1=O | 1%
O=C(CSc1nnc(-c2ccc(Cl)cc2)n1Cc1ccco1)c1cccs1 | ?
Cn1c(-c2ccc(F)cc2)cnc1SCC(=O)N1CCCCC1 | 11%
COc1ccc(Br)cc1CNC(=O)C1CCN(S(=O)(=O)N2CCCCC2)CC1 | 48%
CC(=O)Nc1ccc(OC(=O)c2ccccc2N)cc1 | 9%
COCCNC(=O)Cn1cc2c(n1)CCC(C)C2 (centres undefined) | -5%
O=C(CSc1nnc(-c2ccncc2)n1Cc1ccco1)c1ccc(Cl)cc1 | 69%
CSC1=NCCN1C(=O)c1c(-c2ccccc2Cl)noc1C | 26%
CN1CCN(c2nc3ccccc3nc2C(C#N)C(=O)OC2CCCCC2)CC1 (centres undefined) | 100%
CC(C)(C)NC(=O)Cn1c(=O)oc2cc(S(=O)(=O)N3CCc4ccccc43)ccc21 | 29%
N#Cc1cc(Sc2ccccn2)c(Sc2ccccn2)cc1C#N | 1%
COc1cccc(Nc2ncc3nc(-c4ccc(Cl)cc4)c(=O)n(C4CC4)c3n2)c1 | 10%
COc1ccc(S(=O)(=O)Cc2ccc(C(=O)NCCc3ccc(S(N)(=O)=O)cc3)o2)cc1 | -4%
c1cc(-c2nnc(-c3ccncc3)o2)ccn1 | -2%
CC(CCc1ccccc1)NC(=O)C1CCCN(c2nnc(-n3cccc3)s2)C1 (centres undefined) | 68%
COCCN(CCOC)S(=O)(=O)c1ccc(C(=O)Nc2nnc(C3CC3)o2)cc1 | 3%
Cc1nn(CC(=O)O)c2ccccc12 | -4%
O=C(O)CC(CP(=O)(c1ccccc1)c1ccccc1)C(=O)O (centres undefined) | -18%
CCn1ncc2c1C(=O)NC1c3ccccc3C(=O)N21 (centres undefined) | -8%
c1ccc(Cn2nnc3c(NCC4CCCO4)ncnc32)cc1 (centres undefined) | 17%
O=CNCC(=O)NCCc1ccc(Cl)cc1 | -7%
CCc1ccccc1N(CC(=O)N1CCN(c2ccccc2)CC1)S(C)(=O)=O | 79%
CC1CCN(S(=O)(=O)c2ccc(NC(=O)CN3CCN(c4ccccc4)CC3)cc2)CC1 | 68%
CCCC(=O)NC(Nc1ccc(S(=O)(=O)Nc2ncccn2)cc1)(C(=O)OCC)C(F)(F)F (centres undefined) | -4%
CCc1nc(N2CCCCC2C)c2oc3ccccc3c2n1 (centres undefined) | 39%
COc1cccc(-c2cc(C(=O)NCCN3CCOCC3)no2)c1 | 7%
CCOC(=O)CSc1nc2sc(C(=O)O)c(C)c2c(=O)[nH]1 | -11%
CCc1nc(SCC(=O)NCCc2ccccc2)n[nH]1 | -2%
CC1Cc2ccccc2N1C(=O)C1CCN(S(=O)(=O)Cc2ccccc2)CC1 (centres undefined) | 15%
COc1ccc(Br)cc1C(=O)Nc1nnn(C)n1 | -14%
CCCC(=O)Nc1ccc2c(c1)nc(CN1CCCCC1)n2C | -18%
CCOC(=O)N=S(N)(=O)c1ccccc1 (centres undefined) | 8%
c1csc(-c2nn3c(C4COc5ccccc5O4)nnc3s2)c1 (centres undefined) | 12%
CCc1ccc2[nH]c(=O)c(CN(Cc3ccc4c(c3)OCO4)Cc3nnnn3C3CCCC3)cc2c1 | 41%
C=CCNc1nc(NCCN2CCOCC2)nc(N2CCOCC2)n1 | 7%

# 2 neighbouring records already listed, for reference:
smiles | AmpC inh no det
O=C(O)CC(CP(=O)(c1ccccc1)c1ccccc1)C(=O)O (centres undefined) | -18%
CCn1ncc2c1C(=O)NC1c3ccccc3C(=O)N21 (centres undefined) | -8%

# Further entries follow:
smiles | AmpC inh no det
O=C(O)CCN1/C(=C/C=Nc2ccccc2)Oc2ccccc21 | -8%
O=C(O)CSc1nc2ccccc2[nH]1 | -13%[5.75 µM]
CC(C)NS(=O)(=O)c1ccc(OCC(=O)NCc2ccc3c(c2)OCO3)c(Cl)c1 | 26%
COc1ccc(N2CCN(C(=O)c3cn(C)c(=O)c4c3c3ccccc3n4C)CC2)cc1 | 157%
O=C1N(CCCCN2C(=O)C3(OCCO3)c3ccccc32)c2ccccc2C12OCCO2 | 73%
O=S(=O)(/C=C/c1ccccc1)n1cnc2ccccc21 | -8%
Cn1nnc2cc(NC(=O)N3CC4(C)CC3CC(C)(C)C4)ccc21 (centres undefined) | 13%
Cc1ccc(NC(=O)CSc2nnc([C@@H]3CCCN3C(=O)OC(C)(C)C)o2)c(C)c1 | 55%
O=C(NCc1cccs1)C1CCCN(S(=O)(=O)c2cccc3cccnc23)C1 (centres undefined) | 4%
COc1ccc(S(=O)(=O)N2CCC(O)(c3ccc4c(c3)OCO4)CC2)cc1 | -8%
CCOC(=O)c1cn(CC(=O)Nc2ccccc2C(=O)OCC)nn1 | -3%
O=C(CSc1nnnn1C1CCCC1)c1ccc2c(c1)OCCO2 | 0%
CCCCc1ccc(-c2nc(N)n[nH]2)cc1 | 5%
CCCc1c(C(=O)OCC)[nH]c2c1C(=O)CCC2 | 11%
CSCCC(NS(=O)(=O)c1cccs1)C(=O)NCc1cccs1 (centres undefined) | -8%
O=C(CSc1nccn1Cc1ccccc1)Nc1nccs1 | -6%
COc1ccc(CCn2nnnc2C(C(C)C)N2CCC(C(N)=O)CC2)cc1OC (centres undefined) | 12%
Nn1c(SCc2cccc(C(F)(F)F)c2)nnc1-c1ccco1 | 73%
COC(=O)C1(S(=O)(=O)c2cc(Br)cc3c2N(C(C)=O)CC3)CC1 | 34%
CCOc1ccccc1-n1c(CN2CCN(C(=O)c3ccco3)CC2)nc2ccccc2c1=O | 74%
c1ccc2c(-n3ccnc3)nc(-c3ccoc3)nc2c1 | 14%
COc1ccc(OC)c(C(=O)CSc2nc3c(c(=O)n(C)c(=O)n3C)n2C(C)C)c1 | 68%
COc1ccc(N=CC2=C(O)CCCC2=O)cc1 | -1%
Cc1nnc(NC(=O)C2CCCO2)s1 (centres undefined) | -4%
CC(=O)c1ccc(OCCCC(=O)NCC(c2ccco2)N(C)C)cc1 (centres undefined) | 14%
CCC(C)Sc1nc2c(c(=O)[nH]c(=O)n2C)n1Cc1ccc(Cl)cc1 (centres undefined) | 13%
Nc1c(C(=O)NCc2ccco2)nnn1-c1ccccc1 | -13%
COc1ccc(-c2cc(C(F)F)n3ncc(C(=O)N4CCN(C(=O)c5ccco5)CC4)c3n2)cc1 | 132%
COc1ccccc1NC(=O)CN1CCN(C2c3ccccc3-c3ccccc32)CC1 | 48%
CCOc1ccc(-c2cc(C(=O)N3CCC4(CC3)OCCO4)c3ccccc3n2)cc1 | 116%
OC(COCc1ccc(Cl)cc1)CN1CC=C(c2ccccc2)CC1 (centres undefined) | 40%
CCCOc1ccccc1NC(=O)c1c(-c2ccccc2)noc1C | 3%
C/C(O)=C(/N=O)C(=O)Nc1ccccc1 | -13%
O=S(=O)(Nc1ccccc1N1CCOCC1)c1ccc(Cl)s1 | 20%

# Part of the list above in order of SMILES length, rising.
smiles | AmpC inh no det
CCCOc1ccccc1NC(=O)c1c(-c2ccccc2)noc1C | 3%
OC(COCc1ccc(Cl)cc1)CN1CC=C(c2ccccc2)CC1 (centres undefined) | 40%
CCOc1ccc(-c2cc(C(=O)N3CCC4(CC3)OCCO4)c3ccccc3n2)cc1 | 116%
